# Env fusion inh – HIV envelope-mediated fusion inhibition; HeLa-JRFL Env/CEM21 cell fusion, luciferase; inhibition, % at 12.3 µM; hit rate 1.1% among 360,000; AID 651610;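 active means mean replicate inhibition score of at least 50 and every replicate individually at or above 50; inconclusive means only one of the two criteria met; inactive means mean below 50 and not all replicates reaching 50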;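 further: 0% = plate neutral controls and 100% = maraviroc near 300 nM; one replicate is shown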
# PABP polyA inh – PABP-poly(A) binding inhibition; hit rate 1% among 290,000; inhibition, % at 35 µM; PABP-poly(A) RNA binding, fluorescence polarization; AID 2014;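 active means 50% or more with normal probe brightness, or confirmed in later tests; inconclusive means above 50% with abnormal brightness, or retests that disagree; inactive means below 50% or failed in later tests; about a fifth of its hits are not listed in these tables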;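 further: calls also rest on retests at 20 µM and on dose response follow-up; controls were probe without protein and protein plus probe with vehicle; some compounds called inactive have numbers as strong as hits; many hits fall short of the cut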
# Yeast UUG start – modulators of start codon recognition fidelity in yeast; S. cerevisiae UUG-firefly luciferase reporter, luminescence/redox ratio; activity score, % at 18.7 µM; hit rate 0.13% among 350,000; AID 602363;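 active means replicate mean at a twofold rise or more, about +100% in these data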;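 further: firefly luciferase made from a UUG start codon reports start codon fidelity; reporter light over untreated wells divided by growth signal over untreated wells; some hits fall short of that in this replicate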
# eIF4H inh – inhibitors of RNA binding by human eIF4H; eIF4H fluorescence polarization binding assay; inhibition, % at 35 µM; hit rate 0.94% among 290,000;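 active means 50% or more with normal probe brightness, or confirmed in later tests; inconclusive means above 50% with abnormal brightness, or retests that disagree; inactive means below 50% or failed in later tests; about a fifth of its hits are not listed in these tables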;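 further: calls also rest on retests at 20 µM and on dose response follow-up; 0% = protein and probe with vehicle and 100% = probe without protein; strong numbers were not always called active; many hits fall short of the cut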
# CSC inhib – blocks cancer stem cells; inhibition, % at 7.5 µM; AID 2717; hit rate 1.1% among 300,000; cancer stem cell-like cells viability, luminescence;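 active means mean at 75% or more and at least half the replicates too; inconclusive means mean and replicates disagree; tested in HMLE shEcad cells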;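 further: 0% = median of negative and 100% = median of positive control wells; the first replicate is given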
# Rce1 inh – inhibitors of yeast Ras-converting enzyme; yeast membranes, quenched prenylated peptide cleavage fluorescence; AID 2563; hit rate 0.27% among 290,000; Q03530; calls only;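 active means fall in fluorescence gain of 50% or more versus controls, with final raw signal at or below 3038400; inconclusive means same 50% fall but final raw signal above 3038400; inactive means fall in fluorescence gain under 50%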;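 further: plate controls were neutral control wells for no effect and wells lacking membranes for full effect; tested at 10 µM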
# Target sequence (Q03530 whole entry, looked up): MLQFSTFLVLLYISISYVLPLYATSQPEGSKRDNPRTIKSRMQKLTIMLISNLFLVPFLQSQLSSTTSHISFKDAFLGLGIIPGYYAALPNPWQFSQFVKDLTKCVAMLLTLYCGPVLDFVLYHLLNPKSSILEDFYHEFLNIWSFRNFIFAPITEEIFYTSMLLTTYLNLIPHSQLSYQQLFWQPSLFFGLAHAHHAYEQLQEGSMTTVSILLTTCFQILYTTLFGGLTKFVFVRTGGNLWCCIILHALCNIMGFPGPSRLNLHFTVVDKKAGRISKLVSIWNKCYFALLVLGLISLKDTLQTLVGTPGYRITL
# MT1-MMP act inh – MT1-MMP (human) activation inhibition; HT1080 RFP-PRO-GFP cells, GFP/RFP ratio fluorescence, overnight; percent of plate control window, DMSO zero; hit rate 0.061% among 360,000; P50281; GFP/RFP ratio change, % at 20 µM;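 active means GFP/RFP ratio change of at least 30% with cell ATP level not reduced by more than half and red fluorescence within 50% of control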; further: strong numbers were not always called active
#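 Assay system: HT1080 cells carrying an RFP-PRO-GFP reporter | Dosing: Single dose of 20 µM compound, 1% DMSO final | Incubation: Cells overnight before dosing, compound overnight, 37 °C, 5% CO2 | Evaluation: GFP/RFP fluorescence ratio | Control set: DMSO and RFP-L50D-GFP cell wells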
# eIF4H inh retest – recorded beside eIF4H inh, whose call it bears; inhibition, %; compound at 20 µM; confirmation average;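 mean of two retest wells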
# PABP polyA inh retest – second read-out of PABP polyA inh, no call of its own (marks repeat the call); inhibition, %; compound at 20 µM; confirmation repeats;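 mean of two retest wells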
# MT1-MMP act inh RFP – recorded beside MT1-MMP act inh, whose call it bears; RFP signal change, %; measured here: RFP expression control read;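 0 = vehicle wells; hits needed this value within 50% of zero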
# * marks the source's active call; other numbers are inactive results; i = inactive; ? = inconclusive; / = not tested or not shown.
SMILES,Env fusion inh,PABP polyA inh,Yeast UUG start,eIF4H inh,CSC inhib,Rce1 inh,MT1-MMP act inh,MT1-MMP act inh RFP,others
Cc1nnsc1C(=O)Nc1cccc(Cl)c1Cl,-199,-2,-13,-4,-4,i,3,5,
COc1ccccc1NC(=O)C(=O)N/N=C/c1ccc([N+](=O)[O-])s1,-8,8,-33,57,/,i,1,-2,eIF4H inh retest=22;PABP polyA inh retest=25
CC(C)c1ccccc1OCC(=O)N(C)CC(=O)Nc1ccc(F)cc1,4,/,-3,/,-14,i,2,-5,
Cc1cccc(Cc2nnc(CCC(=O)N(CC3CC3)CC3CCCO3)o2)c1 (stereo not drawn),-2,-2,/,-7,22,i,-2,3,
CC(=O)Nc1cc(-c2ccc(F)cc2)cn2c(-c3ccc(S(C)(=O)=O)cc3)cnc12,-1,/,0,/,/,/,-10,9,
C#CCN(C[C@@H]1[C@@H](OC(=O)NCc2ccc(OC)c(OC)c2)[C@@H](OC(=O)NCc2ccc(OC)c(OC)c2)Cn2c(=O)ccc(=O)n21)S(=O)(=O)c1ccc(C)cc1,?,/,2,/,/,/,-12,-12,
Cn1c(-c2ccccc2)cnc1SCC(=O)N1CCCc2ccccc21,10,-13,-15,-8,7,i,1,6,
O=C(CN(c1ccccc1)S(=O)(=O)c1ccccc1)N1CCOCC1,-8,2,-1,-9,-2,i,-1,3,
Cc1cc(/C=C(\C#N)C(=O)NCc2ccco2)c(C)n1-c1cccnc1,-19,2,/,3,-13,i,1,-5,
Cc1cccc2c1N(C(=O)c1ccco1)C(C)(C)c1ssc(=S)c1-2,/,-4,-16,4,-3,i,0,0,
CCCCN(C(=O)c1cc(CN2C(=O)c3ccccc3C2=O)ccc1OC)c1c(N)n(CC(C)C)c(=O)[nH]c1=O,-37,/,2,/,/,/,-4,-2,
O=C(COc1ccc(-n2cnnn2)cc1)NCCc1ccc(F)cc1,/,-2,-19,-13,/,i,7,3,
O=C(OCc1ccccc1Cl)C1CC(=O)N(Cc2ccco2)C1 (stereo not drawn),4,/,-1,/,-10,i,3,5,
CC(C)(C)N1CC2([N+](=O)[O-])CN(C(C)(C)C)CC([N+](=O)[O-])(C1)C2,/,-7,/,-5,-4,i,1,1,
O=C(CCCCC(=O)Nc1ccccc1Cl)Nc1ccccc1Cl,-18,-3,-4,4,2,i,5,-2,
Cc1csc(=O)n1CC(=O)OCC(=O)NNC(=O)c1ccccc1,0,-10,-9,-9,2,i,-3,3,
Cc1cccc(C(=O)NC(C(=O)Nc2nc(-c3ccccn3)cs2)C(C)C)c1 (stereo not drawn),22,4,/,11,40,i,1,-9,
CC(=O)c1ccc(NC(=S)N2CCCCCC2)cc1,-10,7,-13,4,-17,i,13,6,
Cc1nc2ccc3[nH]snc3c2n1,-2,6,-9,3,-1,i,-8,0,
Cc1[nH]c2ccccc2c1CCNC(=O)CCC(=O)c1ccccc1,-16,-6,-7,0,3,i,-3,-2,

# Two records picked at random from those above:
SMILES,Env fusion inh,PABP polyA inh,Yeast UUG start,eIF4H inh,CSC inhib,Rce1 inh,MT1-MMP act inh,MT1-MMP act inh RFP,others
Cc1nnsc1C(=O)Nc1cccc(Cl)c1Cl,-199,-2,-13,-4,-4,i,3,5,
CC(C)c1ccccc1OCC(=O)N(C)CC(=O)Nc1ccc(F)cc1,4,/,-3,/,-14,i,2,-5,

# Carrying on.
SMILES,Env fusion inh,PABP polyA inh,Yeast UUG start,eIF4H inh,CSC inhib,Rce1 inh,MT1-MMP act inh,MT1-MMP act inh RFP,others
COc1ccc(CN(C)CC2CCCN(CCc3ccc(F)cc3)C2)cc1OC (stereo not drawn),-3,6,-11,-8,/,i,4,-1,
O=C(CCn1nc(-c2ccccc2)ccc1=O)NCCCN1CCCCCC1,/,32,/,15,3,i,0,2,
O=C(OCC1CCCN2CCCCC12)c1ccc2c(c1)OCO2 (stereo not drawn),/,3,-17,-4,17,i,6,2,
Cc1ccccc1Nc1nnc(SCC(=O)NC(=O)Nc2ccc3c(c2)OCCO3)s1,/,2,/,-6,-7,i,/,/,
Cc1ccc2nc(SCC(=O)Nc3ccc(C)c(Cl)c3)nc(=O)n2c1,-28,/,/,/,2,i,2,-1,
COc1ccc(NC(=O)COC(=O)CCSc2ccccc2)cc1,-16,/,-12,/,6,/,-2,3,
COc1cccc(NC(=O)COC(=O)CCCC2=NS(=O)(=O)c3ccccc3N2)c1,0,/,1,/,-11,i,0,1,
CCn1cc([N+](=O)[O-])c(C(=O)N2CCCCCC2)n1,/,12,-13,2,/,i,2,2,
CCOc1ccccc1/C=N/NC(=O)c1c(C)nc2ccc(Br)cn12,19,-6,-18,-8,10,i,-1,3,
Cc1ccc(-n2c(-c3ccccc3)cc(=O)nc2C)cc1,/,0,-4,1,-13,i,3,0,
Cc1ccc(S(=O)(=O)N2CCOCC2)cc1NC(=O)CSc1nnc2cc(C)c3ccccc3n12,/,-7,/,12,5,i,-1,-7,
CC(=O)Cc1nsc(NC(=O)c2cc(-c3ccc(Cl)c(Cl)c3)oc2C)n1,-61,-8,-6,-1,24,i,2,-5,
Cc1ccc(Cn2cccc(NS(C)(=O)=O)c2=O)cc1,12,20,-7,35,/,i,-4,8,
CN(C)/C=N/c1c(C#N)nnn1Cc1ccccc1,/,1,-5,3,-11,i,1,2,
COc1ccc(-n2c(=O)[nH]cc(C(=O)Nc3ccc(NC(C)=O)cc3)c2=O)cc1,-55,0,-20,-5,-9,i,2,11,
O=C(O)c1ccccc1-c1ccc(/C=C2\SC(=O)N(c3ccccc3)C2=O)o1,-17,19,58,23,-5,i,-8,0,
COc1ccc(C2CC(c3cccs3)=NN2C(=O)CN2CCCCC2)cc1 (stereo not drawn),-11,47,/,-5,-11,i,1,0,
COc1ccc(/C(N)=N/OC(=O)N2CCOCC2)cc1,4,-2,/,-2,10,i,-1,-5,
CC(=O)c1ccc(OC(=O)C2c3ccccc3Oc3ccccc32)cc1,19,-1,-12,-4,-1,i,5,3,
Cc1ccccc1N(CC(=O)NC1CCCC1)C(=O)CS(=O)CC(=O)Nc1ccc2c(c1)OCO2 (stereo not drawn),-14,-3,13,4,-1,/,-5,-1,
CC(=O)Nc1cc(-c2ccc(CO)cc2)cn2c(-c3ccc(F)c(Cl)c3)cnc12,13,/,-3,/,/,/,-9,5,
CCCn1c(SCC(=O)N2CCN(c3ccc(OC)cc3)CC2)nc2c1c(=O)n(C)c(=O)n2C,40,-9,17,-1,-6,i,1,-5,
O=C(CCN1CCN(C(c2ccccc2)c2ccccc2)CC1)N/N=C/c1ccc(O)cc1O,-5,5,/,16,/,i,-5,-7,
CCN(CC(=O)NCc1ccccn1)S(=O)(=O)c1cc(Cl)ccc1Cl,7,/,/,/,-7,i,2,-1,
Cc1nn(C)c(Cl)c1C(N)=O,6,2,6,0,-6,i,-1,5,
O=C(CNC(=O)c1ccco1)NCC(=O)OCc1ccc(F)cc1,-11,4,-12,8,-6,i,5,5,
COc1ccc2[nH]c(=O)c(CN(C)C(=O)c3ccncc3)cc2c1,?,-4,2,-9,/,i,-6,3,
O=C(O)CCNC(=O)c1ccc(Br)o1,/,-2,4,3,2,i,1,3,
CCN(CC)c1ccc(NC(=O)CN2CCN(c3ccccn3)CC2)cc1,0,-1,-13,-4,-8,i,2,1,
CCCC(c1nnnn1Cc1ccc(OC)cc1)N1CCN(c2ccccc2OC)CC1 (stereo not drawn),/,7,-2,-4,2,i,-1,-9,
COc1cc(/C=N/n2c(C)nc3ccccc3c2=O)ccc1O,-3,3,-14,0,3,i,4,1,
COc1ccc(CC(=O)N2CCCC(CNC(=O)c3ccccc3Cl)C2)cc1 (stereo not drawn),-4,0,/,8,-8,i,-3,-3,
CCN(Cc1ccncc1)C(=O)CCc1nnc(CCc2ccc(OC)cc2)o1,-1,-3,-21,-6,-23,i,-2,-2,
Cc1ccc(-c2csc(NC(=S)NC(=O)c3cccs3)n2)cc1,6,-8,1,-1,9,i,2,-2,
O=C(CN(Cc1ccc(F)cc1)C(=O)c1csnn1)NC1CCCC1,-7,-3,-7,-7,-11,/,1,-1,
CCOC(=O)CN(C(=O)CNC(=O)c1cccs1)C(C(=O)NC1CCCCC1)c1cccnc1 (stereo not drawn),-36,20,-50,2,3,i,2,2,
CN1CCN(C(=O)CCc2nc3ccccc3c(=O)[nH]2)CC1,/,2,/,-1,-2,i,1,3,
CC(C)Cn1c(SC(C)C(=O)Nc2ccc(N3CCOCC3)cc2)nc2ccccc21 (stereo not drawn),14,7,/,-4,-2,i,-1,0,
Cc1ccc(OCCC(=O)N(CCC(C)C)c2c(N)n(Cc3ccccc3)c(=O)[nH]c2=O)cc1,/,/,/,/,-6,i,-16,-13,
COc1ccc(CN(C(=O)c2ccc3c(c2)OCCO3)C(C(=O)NC2CCCCC2)c2ccc3ncccc3c2)cc1 (stereo not drawn),5,-8,-9,-14,-2,i,-2,-5,

# Of the compounds above, 16 contain an aryl methoxy group.
SMILES,Env fusion inh,PABP polyA inh,Yeast UUG start,eIF4H inh,CSC inhib,Rce1 inh,MT1-MMP act inh,MT1-MMP act inh RFP,others
COc1ccccc1NC(=O)C(=O)N/N=C/c1ccc([N+](=O)[O-])s1,-8,8,-33,57,/,i,1,-2,eIF4H inh retest=22;PABP polyA inh retest=25
C#CCN(C[C@@H]1[C@@H](OC(=O)NCc2ccc(OC)c(OC)c2)[C@@H](OC(=O)NCc2ccc(OC)c(OC)c2)Cn2c(=O)ccc(=O)n21)S(=O)(=O)c1ccc(C)cc1,?,/,2,/,/,/,-12,-12,
CCCCN(C(=O)c1cc(CN2C(=O)c3ccccc3C2=O)ccc1OC)c1c(N)n(CC(C)C)c(=O)[nH]c1=O,-37,/,2,/,/,/,-4,-2,
COc1ccc(CN(C)CC2CCCN(CCc3ccc(F)cc3)C2)cc1OC (stereo not drawn),-3,6,-11,-8,/,i,4,-1,
COc1ccc(NC(=O)COC(=O)CCSc2ccccc2)cc1,-16,/,-12,/,6,/,-2,3,
COc1cccc(NC(=O)COC(=O)CCCC2=NS(=O)(=O)c3ccccc3N2)c1,0,/,1,/,-11,i,0,1,
COc1ccc(-n2c(=O)[nH]cc(C(=O)Nc3ccc(NC(C)=O)cc3)c2=O)cc1,-55,0,-20,-5,-9,i,2,11,
COc1ccc(C2CC(c3cccs3)=NN2C(=O)CN2CCCCC2)cc1 (stereo not drawn),-11,47,/,-5,-11,i,1,0,
COc1ccc(/C(N)=N/OC(=O)N2CCOCC2)cc1,4,-2,/,-2,10,i,-1,-5,
CCCn1c(SCC(=O)N2CCN(c3ccc(OC)cc3)CC2)nc2c1c(=O)n(C)c(=O)n2C,40,-9,17,-1,-6,i,1,-5,
COc1ccc2[nH]c(=O)c(CN(C)C(=O)c3ccncc3)cc2c1,?,-4,2,-9,/,i,-6,3,
CCCC(c1nnnn1Cc1ccc(OC)cc1)N1CCN(c2ccccc2OC)CC1 (stereo not drawn),/,7,-2,-4,2,i,-1,-9,
COc1cc(/C=N/n2c(C)nc3ccccc3c2=O)ccc1O,-3,3,-14,0,3,i,4,1,
COc1ccc(CC(=O)N2CCCC(CNC(=O)c3ccccc3Cl)C2)cc1 (stereo not drawn),-4,0,/,8,-8,i,-3,-3,
CCN(Cc1ccncc1)C(=O)CCc1nnc(CCc2ccc(OC)cc2)o1,-1,-3,-21,-6,-23,i,-2,-2,
COc1ccc(CN(C(=O)c2ccc3c(c2)OCCO3)C(C(=O)NC2CCCCC2)c2ccc3ncccc3c2)cc1 (stereo not drawn),5,-8,-9,-14,-2,i,-2,-5,

# Some of the compounds tested (hit frequency here may not be typical).
